High-throughput results deposited in PubChem BioAssay by ICCB-Longwood Screening Facility, Harvard Medical School.
HCMV NEC inh: cytomegalovirus nuclear egress complex inhibition | 190,000 compounds, 0.15% hits | inhibition, % (concentration not given with the values) | HTRF UL50-UL53 interaction, normalized percent inhibition;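 active = both replicates at 50% or more, plus weaker picks with an unusually low signal ratio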;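 note: stock transfer was 100 nL into about 20 µL; 0% = negative control wells and 100% = wells with untagged competitor protein; inactives centre near -12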
GIV-Gai inh: GIV-Galpha-i interaction inhibition; AID 1224905; Galpha-i3/FITC-GIV peptide fluorescence polarization, 90 min; active compounds read low; scaled: aluminum fluoride 0%, vehicle 100%; 210,000 compounds, 0.42% hits; percent of control (FP), % (concentration not given with the values); P08753;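 active = replicate mean at 85% of control or lower, very high polarization wells dropped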;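 note: wells of about 15 µL received 100 nL stock; the first replicate is given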
Target sequence (P08753 whole entry, looked up): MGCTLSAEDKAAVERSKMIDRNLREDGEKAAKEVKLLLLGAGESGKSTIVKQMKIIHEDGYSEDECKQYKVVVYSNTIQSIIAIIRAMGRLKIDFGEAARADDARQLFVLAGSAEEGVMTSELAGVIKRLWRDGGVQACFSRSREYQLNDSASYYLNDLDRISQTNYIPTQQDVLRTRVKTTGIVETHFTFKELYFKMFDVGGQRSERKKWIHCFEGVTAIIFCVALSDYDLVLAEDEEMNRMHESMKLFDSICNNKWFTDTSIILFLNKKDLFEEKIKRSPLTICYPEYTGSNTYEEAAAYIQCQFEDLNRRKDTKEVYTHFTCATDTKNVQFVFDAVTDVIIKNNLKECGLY
Sa growth inh: S. aureus growth inhibition | S. aureus RN4220 growth, OD600, 20 h, 42 °C; active compounds read low | 170,000 compounds, 0.53% hits | relative growth, % (concentration not given with the values);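 active = growth at 42 °C up to 50% and 20 or more points under that at 30 °C, or under 10% at both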;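 note: 300 nL library stock went into each well; scaled to the means of positive and negative controls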
Sa growth inh second temp: further read-out of Sa growth inh, marked with its call; relative growth, %; measured here: growth at 30 °C;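 optical density after 20 h as mean of two plates; 100% = untreated growth and lower means inhibition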
Active calls of the source: *; . = not tested or not shown; & = joins results of further samples.

SMILES	HCMV NEC inh	GIV-Gai inh	Sa growth inh	Sa growth inh second temp
O=C(C1CCN(S(=O)(=O)Cc2ccccc2)CC1)N1CCN(c2ccccc2F)CC1	-14	104	112	89
CCCCSc1ccc(NCCC(=O)c2ccco2)cc1	-18	106	117	95
CN=c1scc(-c2cc(C)n(CCC(C)C)c2C)n1C	-4	.	87	91
CN1CCN(c2ncc3c(=S)[nH]c(=S)[nH]c3n2)CC1	-65	102	91	89
COC(=O)C1=C(C)N=c2s/c(=C\c3cc(OC)c(OC)cc3[N+](=O)[O-])c(=O)n2C1c1ccccc1 (stereo not given)	-19	104	.	.
O=C(CN1C(=O)c2ccccc2C1=O)N1CCCC1	-42	104	100	104
O=C(O)c1cc(NS(=O)(=O)c2cc(F)ccc2F)ccc1N1CCN(C2CCCCC2)CC1	-17	103	.	.
OC(CN1CCOCC1)Cn1c2c(c3ccccc31)CCCC2 (stereo not given)	8	.	119	99
COc1ccc(-c2csc(=Nc3cc(C(=O)O)ccc3C)o2)cc1	-86	.	147	102
CSC1=NCCN1C(=O)c1cccc(C)c1	-42	102	89	78
COC(=O)c1cc(COC(=O)CNC(=O)c2ccc(Br)cc2)oc1C	5	.	96	95
Cc1c(C(=O)NCc2ccco2)cc(-c2ccccc2)n1CCSCc1c(F)cccc1Cl	-33	107	104	80
COc1ccc(OC)c(C(=O)CN2C(=O)N(c3ccc(C)cc3)S(=O)(=O)c3ccccc32)c1	.	104	124	100
Cc1[nH]n(-c2ccccc2)c(=O)c1C=NC(C)C	17	.	90	89
OCCc1c[nH]c2ccc(OCc3ccccc3)cc12	0	96	123	86
N#C/C(=C\NC(=O)c1ccccc1)C(=O)N1CCOCC1	-11	.	93	96
NNC(=O)CNc1ccccc1	-14	.	86	88
CC(NC(=O)c1cccnc1)C(=O)N1CCCCC1 (stereo not given)	-25	100	106	87
Cc1cc(C)c2c(N)nn(C)c2n1	-1	108	99	97
Cc1cccc(NC(=O)NC(Cc2ccccc2)Cc2ccc3c(c2)OCO3)c1 (stereo not given)	3	108	.	.
O=C(O)CCc1ccc(-c2cccs2)o1	-8	.	94	70
Cc1nnc(SCc2cc(=O)n3c(nc4ccccc43)[nH]2)s1	-8	101	.	.
C=CCN(CC=C)C(=O)CN1C(=O)c2ccccc2C1=O	-78	108	112	92
O=C(Nc1cccc2cccnc12)c1ccc(-c2cccc(Cl)c2)o1	-12	107	99	83
CCC1CCCCN1C(=O)Cn1c(=O)n(Cc2ccccc2)c(=O)c2c1c(C)nn2CC (stereo not given)	9	101	.	.
CCC(C)NC(=O)NCc1ccccc1F (stereo not given)	-3	105	125	99
COc1ccc(-n2nnnc2C2CCN(S(=O)(=O)c3ccc(NC(C)=O)cc3)CC2)cc1	-39	101	108	90
CN(C)C(CC(=O)Nc1ccc(Nc2ccccc2)cc1)C(=O)O (stereo not given)	-25	102	99	97
CN(C)CCn1cnc2scc(-c3ccccc3)c2c1=O	-21	99	.	.
Cc1ccc(CCC(=O)Nc2ccc(C(C)C)cc2)o1	-6	100	102	71
Cc1c(-c2nc3cc(Cl)ccc3n2Cc2ccccc2)cc(C#N)n1C	-4	.	93	88
Cc1nnc(SCC(=O)NCc2cccc(F)c2)c2nn(-c3ccccc3)c(C)c12	.	105	94	95
Cn1cc(/C=C(\C(=O)O)C(C(=O)O)=C2CCCCC2)c2ccccc21	11	.	142	104
CCN(C1CCCCC1)S(=O)(=O)c1cccc(S(=O)(=O)N2CCCC2)c1	-26	102	127	104
COc1cc(Cl)c(NC(=O)CN2C(=O)c3cccnc3Sc3ccccc32)c(OC)c1	-22	104	104	84
CCc1cc(C(=O)O)no1	-23	101	93	76
CC(C)CCNS(=O)(=O)c1ccc(-c2cc(C(F)(F)F)on2)o1	-7	103	.	.
Cc1nn(-c2ccccc2)c(C)c1NC(=S)NC(=O)c1cccs1	-17	103	88	68
COC(CNC(=O)Cn1ncc2ccsc2c1=O)OC	.	100	111	92
O=C(Nc1ccc2c(c1)N(Cc1ccccc1)C(=O)c1ccccc1S2)NC1CC1	.	106	89	82
CCCN1CCN(S(=O)(=O)c2cc(-c3noc(CC)n3)sc2C)CC1	-41	107	.	.
COc1ccc(-c2ccc(CCC(=O)O)n2-c2ccc(Cl)cc2C)cc1	-26	105	115	88
CC(C)N(CC(=O)c1cccs1)Cc1ccccc1	6	.	-1.0*	-0.5*
COc1ccccc1CNC(=O)CCc1c(C)nc2cc(-c3ccc(Cl)cc3)nn2c1C	25	102	107	101
COc1cccc(N2CCN(C(=O)CCCn3c(=O)[nH]c4ccc(Br)cc4c3=O)CC2)c1	-16&-23	106&102	94	58
CC(C)CN(CCCNC(=O)c1cc(-c2cccs2)nc2ccccc12)CC(C)C	-3	102	98	99
Cc1nc(NN)nc(NCc2ccccc2)n1	-46	95	80	86
CCN(C1=NS(=O)(=O)c2ccccc21)c1ccccc1	-30	.	89	88
CCN(CC)C(=O)c1sc2c(c1C)c(=O)n(Cc1ccccc1)c(=O)n2Cc1c(C)cc(C)cc1C	.	100	105	72
CN(C)Cc1c(O)ccc2cc(-c3nc4ccccc4s3)c(=O)oc12	-62	-45*	92	77

(further entries)
SMILES	HCMV NEC inh	GIV-Gai inh	Sa growth inh	Sa growth inh second temp
CC1CCN(CCNC(=O)c2ccc(NC(=O)C3CCCO3)cc2)CC1 (stereo not given)	-2	99	107	86
CC1=Nc2cc(C(=O)NC3CCCC3)ccc2Sc2ccccc21	0	102	94	86
CC(C)CNCC1OCCCCO1	-32	102	92	82
CN1C(=O)CC(C(=O)Nc2ccc(F)cc2)SC1=Nc1cccc(C(F)(F)F)c1 (stereo not given)	-11	103	.	.
CC(C)Sc1ncc(Cl)c(C(=O)Nc2nc3ccc(S(C)(=O)=O)cc3s2)n1	2	104	96	87
Cn1cc(CCC(=O)N2CCC(C(N)=O)CC2)c2ccccc21	-8	103	94	94
O=C(CCn1c(=S)[nH]c2ccccc2c1=O)N1CCc2ccccc2C1	-28	106	99	85
CC(C)OC(=O)CSc1nnc(-c2ccc(O)cc2)n1-c1ccccc1	-19	98	111	104
Cc1ccccc1NC(=O)COc1ccc(N2CC(C(N)=O)CC2=O)cc1 (stereo not given)	-9	105	95	96
CCCCOC(=O)Nc1ccc(C(N)=O)cc1	-12	103	93	88
CSc1ccc(-c2cccc(F)c2F)cc1	-16	102	.	.
CCc1ccccc1NC(=O)CSc1nc(C)c(C(=O)Nc2ccccc2)c(-c2ccc(Cl)cc2)c1C#N	-46	106	89	82
Cc1cccc(-c2nn3c(=O)cc(CSc4nc5ccccc5[nH]4)nc3s2)c1	7	100	.	.
Cc1ccc(O)c(-c2n[nH]c3c2C(c2ccc(F)cc2)N(Cc2ccco2)C3=O)c1 (stereo not given)	-10	106	63	47
Cc1ccc(NC(=O)Cn2c(=O)n(CCc3ccccc3)c(=O)c3c4c(sc32)CCCC4)cc1C	-3	106	106	89
COc1ccc(C(=O)NCCc2nc(-c3ccccc3)no2)cc1	-7	107	.	.
Cc1ccc2ncc(S(=O)(=O)c3ccccc3)c(N3CCCC(C)C3)c2c1 (stereo not given)	-15	98	.	.
CCOc1cc(C2C(C(=O)OCCSCC)=C(C)NC3=C2C(=O)CC(c2ccccc2)C3)ccc1O (stereo not given)	-18	99	.	.
CCCN(CC1CC1)C(=S)Nc1ccc(OCC)cc1	-10	.	112	97
O=C(CSC1=NCCS1)c1ccc2c(c1)OCCO2	-7	104	109	99
COC(=O)C(C)Oc1cc2oc(=O)c3c(c2cc1Cl)CCC3 (stereo not given)	-29	103	95	91
CCOC(=O)c1cc(-c2ccc(OC)c(S(=O)(=O)N3CCCc4ccccc43)c2)on1	-1	109	92	98
COc1ccc(NC(=O)c2ccco2)cc1NC(=O)C(C)(C)Oc1ccc(Cl)cc1	-22	108	108	80
CN1c2ccccc2C(C)(C)C12CCCC(=O)N2 (stereo not given)	3	108	100	103
O=C(CCCc1nc(-c2ccccc2)no1)N1CCOCC1	.	107	114	87
COC(=O)C1C2C=CC3(CN(Cc4ccccc4)C(=O)C13)O2 (stereo not given)	-6	100	91	90
Cc1c(C(=O)Nc2cc(-c3cccc(F)c3)no2)sc2nc3n(c(=O)c12)CCCCC3	7	104	106	91
CCc1ccccc1N(C)C(=O)c1cn(CC(C)C)c(=O)c2cc(OC)c(OC)cc12	-2	106	99	100
Cc1cc(Nc2ccccc2)n2ncc(-c3ccc(F)cc3)c2n1	-6	105	.	.
COc1ccc(SCC(=O)c2cc(C)n(C3CC3)c2C)cc1	1	.	99	90

In another format: results already given
Molecule | HCMV NEC inh | GIV-Gai inh | Sa growth inh | Sa growth inh second temp
OC(CN1CCOCC1)Cn1c2c(c3ccccc31)CCCC2 (stereo not given) | 8 | . | 119 | 99
Cc1cc(C)c2c(N)nn(C)c2n1 | -1 | 108 | 99 | 97
CC(C)N(CC(=O)c1cccs1)Cc1ccccc1 | 6 | . | -1.0* | -0.5*
Cc1ccc(CCC(=O)Nc2ccc(C(C)C)cc2)o1 | -6 | 100 | 102 | 71
CC1CCN(CCNC(=O)c2ccc(NC(=O)C3CCCO3)cc2)CC1 (stereo not given) | -2 | 99 | 107 | 86
Cc1[nH]n(-c2ccccc2)c(=O)c1C=NC(C)C | 17 | . | 90 | 89

(continued)
SMILES	HCMV NEC inh	GIV-Gai inh	Sa growth inh	Sa growth inh second temp
O=C(O)Cn1nc(N2CCN(c3ccc(F)cc3)CC2)ccc1=O	-21	108	92	84
CC(C)COc1ccc(C(=O)Nc2ccc(C(=O)NCC3(c4ccccc4)CC3)cc2)cc1	.	99	92	97
N=C1/C(=C/c2cccn2Cc2ccc(Cl)cc2)C(=O)N=C2SC=CN12	.	103	102	91
Cc1ccc(N(C(=O)COc2ccccc2C)S(=O)(=O)c2ccc(Cl)cc2)cc1	-22	100	98	84
COc1ccc(Cl)cc1NC(=O)COCC(=O)O	-7	97	107	100
Cc1onc(-c2ccccc2)c1NC(=O)Nc1ccc(-n2ccc(C(F)(F)F)n2)cc1	-5	102	96	85
CCC(C)NCc1ccc(OCc2ccc3c(c2)n(C)c(=O)n3C)c(OC)c1 (stereo not given)	-15	104	.	.
CNC(=O)c1ccccc1NS(=O)(=O)c1ccc(Br)cc1	-22	.	118	88
CCOc1ccc(NC(=O)C2CCCN(S(=O)(=O)c3c(C)noc3/C=C/N(C)C)C2)cc1 (stereo not given)	2	104	118	82
Cc1c(N2CCN(C(=O)c3cc4ccccc4[nH]3)CC2)c(=O)n(C)c(=O)n1C	-37	109	.	.
CCN(CC)c1cc(C)c2cc(NC(=O)Nc3ccc(Br)cc3)ccc2n1	-6	101	.	.
Cc1ccc(S(=O)(=O)N2CCN(CC(=O)N=Nc3c(O)[nH]c4c(C)c(C)ccc34)CC2)cc1	-45	.	97	89
O=C(O)c1cc(Cl)c(Cl)cc1C(=O)O	-26	100	88	79
COc1cccc2sc(NC(=O)c3ccccc3Cl)nc12	4	.	84	82
COc1ccc(CCNC(=O)c2ccc(-n3c(C)cc4c3CCC(C)C4)cc2)cc1OC (stereo not given)	.	105	103	86
Cc1ccc(S(=O)(=O)C(F)F)cc1S(=O)(=O)C(F)F	-29	.	100	91
CCn1c(SCC(=O)c2ccccc2)nnc1-c1cccc(Cl)c1	-8	109	87	56
CCOC(=O)N1CCN(C(=O)CCc2nc3sc4c(c3c(=O)[nH]2)CCCC4)CC1	-20	98	90	87
CCOC(=O)c1ccc(NC(=O)CN2C(=O)c3ccccc3C2=O)cc1	-5	102	97	90
COC(=O)c1scc(-c2ccccc2)c1S(=O)(=O)N1CCc2ccccc2C1	-17	105	.	.
Cc1ccc(NC(=O)CN(C)S(=O)(=O)c2ccc3c(c2)n(C)c(=O)c(=O)n3C)cc1F	7	107	109	88
CCc1ccc2c(CNC(CC)CC)cc(=O)oc2c1	-27	.	81	82
CCOC(=O)c1ccccc1NC(=O)CSc1nccn1Cc1ccco1	.	97	108	82
O=C(CSc1nc2ccccc2o1)Nc1ccccc1Cl	-6	108	.	.
Cc1cc(=O)n(-c2ccc(O)cc2)[nH]1	69*	77*	83	68
N#Cc1cc2c(=O)n3ccccc3nc2n(-c2cccc(C(F)(F)F)c2)c1=O	.	114	91	66
Cc1nc2nc(C)c(CCC(=O)NCCC3=CCCCC3)c(C)n2n1	.	98	105	99
Cc1ccc(S(=O)(=O)/C(C#N)=C/c2ccccc2)cc1	-10	107	110	100
Cc1oc2c(c(C)cc3oc(=O)c(CC(=O)NCc4ccc(F)cc4)c(C)c32)c1C	-35	105	106	87
CCOc1ccccc1NC(=O)CSc1nccn1-c1ccc(Cl)cc1	.	102	119	84
Cc1cc(=O)n2c(n1)sc1ccccc12	12	111	98	92
CCOC(=O)C1CCCCN1Cc1ccco1 (stereo not given)	10	103	114	88
COc1ccc(NS(=O)(=O)c2cc(N3C(=O)CCS3(=O)=O)ccc2OC)cc1Cl	-12	99	.	.
CC(=O)c1cccc(NC(=O)Cn2c(C)c3cnn(-c4ccccc4)c(=O)c3c2C)c1	0	109	101	73

An excerpt of these results, comma-delimited:
mol,HCMV NEC inh,GIV-Gai inh,Sa growth inh,Sa growth inh second temp
CCOC(=O)C1CCCCN1Cc1ccco1 (stereo not given),10,103,114,88
COc1ccc(NS(=O)(=O)c2cc(N3C(=O)CCS3(=O)=O)ccc2OC)cc1Cl,-12,99,.,.

Compounds as they come; about 0.83% have a hit in one of these screens.
